PrP UTR inh = suppresses PrP 5' UTR mRNA reporter expression; cell-based PrP 5' UTR mRNA reporter, plate reader; inhibition, % (concentration not given with the values); 340,000 tested, 0.35% active;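 active means every replicate at 50% or more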;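 further: 0 = median of the neutral control wells; tested in H4 reporter cells; numbers are from one replicate; inactives centre near -14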
BJeLR lethal = BJeLR cell viability loss; BJeLR (HRASV12) viability, CellTiter-Glo ATP luminescence, 48 h; reference of the scale not given here; inhibition, % (no concentration beside the values); 300,000 tested, 0.17% active; AID 1554;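 active means replicate mean above 50%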;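 further: 50 nL library stock added to about 25 µL; numbers are from one replicate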
Mtb hypoxia inh = Mtb hypoxia fluorescent reporter inhibition; M. tuberculosis hypoxia-regulated fluorescent reporter, fluorescence; fluorescence inhibition, % (concentration not given with the values); 300,000 tested, 0.1% active; AID 1159583;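 active means 35 to 45% if threefold the growth effect, above 45% if 1.5-fold the growth effect; inactive means the rest, general growth blockers included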;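 further: wells of about 50 µL received 100 nL stock; 0% = vehicle wells and 100% = reference inhibitor wells; whole bacteria with a GFP reporter of the hypoxia response; strong numbers were not always called active; many hits fall short of the cut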
Sa RN4220 lethal = S. aureus RN4220 growth inhibition. OD600, 16 h. inhibition, % (no concentration beside the values). 330,000 tested, 0.33% active;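 active means z-score of -3 or lower and OD600 up to 0.18 on both plates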;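 further: plate controls were untreated cells for no effect and reference antibiotic for full effect; stock transfer was 100 nL into about 80 µL; one replicate is shown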
Autofluor counter = compound fluorescence in toxin protease inhibitor counterscreen; compound autofluorescence counterscreen, microsphere flow cytometry; stronger effect = higher value; fluorescence intensity (test concentration not listed); 360,000 tested, 3.1% active;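 active means at least 3 SD above the mean of all compounds, about 16000 in these data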;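 further: 100 nL of 1 mM stock went into each well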
ugtP null kill = growth inhibition of S. aureus ugtP deletion strain; S. aureus RN4220 ugtP deletion, OD600 growth, 16 h; some inactives read as strong as hits; growth inhibition, % (no concentration beside the values); 330,000 tested, 0.54% active; AID 1259309;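 active means z-score under -3 and OD600 up to 0.15 on both plates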;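 further: plate controls were untreated wells for no effect and antibiotic for full effect; wells of about 80 µL received 100 nL stock; the first replicate is given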
Mtb hypoxia inh growth = second read-out of Mtb hypoxia inh, no call of its own (marks repeat the call); growth inhibition, %; measured here: M. tuberculosis growth (absorbance);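 0% = vehicle and 100% = reference antibiotic; read after six days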
Numbers without * were called inactive; · = not tested or not shown; & = joins results of further samples.

SMILES	PrP UTR inh	BJeLR lethal	Mtb hypoxia inh	Mtb hypoxia inh growth	Sa RN4220 lethal	Autofluor counter	ugtP null kill
CC1(C(=O)O)CC(C)(C(=O)O)CC(C)(C(=O)O)C1 (configuration not stated)	-22	-5	4	3	4.8	2478	0
Cc1nnc(NC(=O)CN2CC(C)OC(C)C2)s1 (configuration not stated)	-64	8	-4	6	2.4	3110	5
Cc1cc(S(=O)(=O)c2ccc([N+](=O)[O-])cn2)ccc1Br	-17	36	·	·	26	6269	40
CNc1nc(C)c(C(=O)OCC(=O)OC)s1	-18	10	11	6	2.4	3577	-1
O=C(O)C(=O)/C(=C\c1cccc(Cl)c1)c1ccc2ccccc2n1	-47	4	1	8	-4.1	4397	5
O=c1oc2ccccc2cc1-c1ccc(O)cc1O	3	12	-4	7	5.5	2641	7
Cc1nn(Cc2ccccc2)c(C)c1NC(=O)CSc1nc(C2CC2)nc2c1cnn2-c1ccccc1	-22	0	14	5	-0.8	2848	0
CCOC(=O)N(Cc1ccccc1)C(C(=O)O)C(C(=O)O)N(Cc1ccccc1)C(=O)OCC (configuration not stated)	-19	1	·	·	2.4	4510	-2
FC(F)(F)c1cnc(Sc2ncn[nH]2)c(Cl)c1	-18	3	-4	-8	2.3	3978	4
CC12CCC(C(=O)NCc3cccnc3)(OC1=O)C2(C)C (configuration not stated)	-15	-2	6	6	2.3	3399	0
O=C(NNC1=NCCC1)c1cccc(S(=O)(=O)N2CCOCC2)c1	-18	-2	15	-3	1.0	2164	6
COC(=O)c1cccc(NC(=O)c2nn(C(C)C)c(=O)c3ccccc23)c1	-1	-22	5	7	5.1	17352*	14

Three of the compounds above, with values under each structure:
Value order: PrP UTR inh, BJeLR lethal, Mtb hypoxia inh, Mtb hypoxia inh growth, Sa RN4220 lethal, Autofluor counter, ugtP null kill
- CC12CCC(C(=O)NCc3cccnc3)(OC1=O)C2(C)C (configuration not stated)
 : -15, -2, 6, 6, 2.3, 3399, 0
- O=C(NNC1=NCCC1)c1cccc(S(=O)(=O)N2CCOCC2)c1
 : -18, -2, 15, -3, 1.0, 2164, 6
- COC(=O)c1cccc(NC(=O)c2nn(C(C)C)c(=O)c3ccccc23)c1
 : -1, -22, 5, 7, 5.1, 17352*, 14

The list goes on.
SMILES	PrP UTR inh	BJeLR lethal	Mtb hypoxia inh	Mtb hypoxia inh growth	Sa RN4220 lethal	Autofluor counter	ugtP null kill
O=c1c2ccccc2ncn1/N=C/c1ccccc1	-49	0	·	·	·	3943	·
COc1ccc(-c2cc3ccccc3oc2=O)cc1NC(=S)NC(=O)c1ccc2c(c1)OCCO2	-49	15	-4	-4	8.9	10933	-5
CCc1ccc(-n2c(CSc3nnnn3-c3ccccc3)nc3ccccc3c2=O)cc1	-10	3	·	·	0.1	2788	-10
COc1cc(C(=O)NN=C(C)c2ccc(NC(=O)Cc3ccccc3)cc2)ccc1O	·	·	3	8	0.2	·	4
COc1nc(-c2ccccc2)c2cc(Br)ccc2n1	-5	-17	6	13	2.2	5495	9
COc1ccccc1NS(=O)(=O)c1cccc2cccnc12	-6	5	·	·	4.2	3889	0
CC(NCC(=O)Nc1ccccc1C(=O)NC1CC1)c1ccc(S(N)(=O)=O)cc1 (configuration not stated)	-5	·	-1	-1	3.2	6356	-1
CC(C)CN(CC(C)C)S(=O)(=O)N1CCC(C(=O)NCc2ccccn2)CC1	-24	-9	2	2	6.0	9937	1
O=C(NNC1=NCCCCC1)Nc1cccc(Cl)c1	-57	7	4	5	2.0	4416	3
CC(=O)Nc1ccc(NC(=O)c2cc(-c3cc(C)c(C)cc3O)n[nH]2)cc1	-18	14	12	-2	5.2	3011	4
COc1cccc(NC(=O)CSc2nc(N)cc(N)n2)c1	-23	-7	0	5	1.7	8019	-1
CC(=O)Nc1sc(N/N=C/c2ccccc2)nc1-c1ccc(C)cc1	-36	-9	·	·	·	3806	·
Cc1ccccc1NC(=O)COC(=O)c1ccc2nc(C)c(C)nc2c1	-6	·	-4	3	0.8	3548	2
CC(C)(C)NC(=O)/C=N/O	2	1	·	·	·	2395	·
C=CCn1c(N)cc(=O)nc1SCC(=O)Nc1ccccc1C(N)=O	-8	·	1	-6	8.0	4447	5
CC1(C)CC(=O)C(C=NCCN2CCNC2=O)=C(O)C1	-2	-5	1	-4	6.6	2601	11
O=C1COc2ccc(C(=O)COC(=O)COc3ccccc3[N+](=O)[O-])cc2N1	3	-13	-10	3	2.0	6109	9
COc1ccc(C(=O)NN=C2SCC(=O)N2Cc2ccc3c(c2)OCO3)cc1OC	·	·	3	-4	-1.4	·	-2
Cn1c(=NC(=O)C2CCN(S(=O)(=O)c3cccs3)CC2)sc2ccccc21	-13&-29	1	11&3	5&2	3.0&5.2	4301&4174	2&5
COc1c(NC(C)=O)c2ccccc2c2ccccc12	-15	4	13	0	5.9	4169	6
CC1CCN(CC(=O)NNC(=O)c2cccc(Br)c2)CC1	-7	-6	-5	3	1.0	3889	10
Cc1ccccc1NC(=O)CCC(=O)OCCCC(F)(F)C(F)(F)F	-34	-8	10	16	7.0	9091	-4
CCOC(=O)c1c(NC(=O)C2CCCN(S(=O)(=O)c3ccc(C)cc3)C2)sc2c1CCCC2 (configuration not stated)	-18	-7	4	-3	6.0	2515	6
CN(C)C(CNC(=O)c1oc2ccccc2c1CSc1ncn[nH]1)c1ccco1 (configuration not stated)	-23	·	-10	-6	-1.6	4713	1

Quoted from the listing.
Mtb hypoxia inh result of Cc1ccccc1NC(=O)CCC(=O)OCCCC(F)(F)C(F)(F)F = 10
Autofluor counter result of CC1(C)CC(=O)C(C=NCCN2CCNC2=O)=C(O)C1 = 2601
Sa RN4220 lethal result of C=CCn1c(N)cc(=O)nc1SCC(=O)Nc1ccccc1C(N)=O = 8.0

Following part.
SMILES	PrP UTR inh	BJeLR lethal	Mtb hypoxia inh	Mtb hypoxia inh growth	Sa RN4220 lethal	Autofluor counter	ugtP null kill
OC(c1ccc(Cl)cc1Cl)C(Cc1cccnc1)n1cncn1 (configuration not stated)	-19	5	13	9	7.2	3864	-6
CC1CCCCN1N=Nc1nc2c([nH]1)c(=O)n(C)c(=O)n2C (configuration not stated)	-18	·	16	2	3.6	2807	8
O=C(Nc1cccnc1Cl)c1ccc(Cl)c([N+](=O)[O-])c1	-10	-2	1	7	9.7	2351	14
CCOC(=O)c1ccc(COC(=O)CCc2nc(-c3ccccc3)c(-c3ccccc3)o2)cc1	-7	-1	4	5	11	16434*	52
COc1ccc(/C=C2\CCc3ccccc3C2=O)c(OC)c1OC	-15	3	3	0	0.1	3633	5
CCC(CCC=C(C)C)C(=O)N(Cc1ccccc1)c1ccccc1 (configuration not stated)	·	·	2	0	-4.2	·	13
O=C1c2ccc3c4c(ccc(c24)C(=O)N1c1cccc(O)c1)C(=O)N(c1cccc(O)c1)C3=O	·	9	-10	-15	40	4443	20
CCOc1ccc(CCNC(=O)Cn2ncn3nc(-c4ccc(OC)cc4)cc3c2=O)cc1	-8	7	-2	1	8.9	5629	0
Cc1ccc(NC(=S)N(CCN2CCOCC2)Cc2ccccc2F)cc1	-26	8	-1	10	12	4134	4
CC1CN(C(=O)CCNC(=O)c2ccc(Br)cc2)CC(C)O1 (configuration not stated)	-11	-10	3	6	2.0	5352	4
O=C(NCCc1nc(-c2ccccc2)no1)c1ccccc1	-6	-9	21	5	2.3	3542	5
Nc1ccc(C(=O)OCc2nc3cc4ccccc4cc3[nH]2)cc1	-26	8	·	·	·	4420	·

Record cards, as listed above. Order of values: PrP UTR inh | BJeLR lethal | Mtb hypoxia inh | Mtb hypoxia inh growth | Sa RN4220 lethal | Autofluor counter | ugtP null kill
Profile of Cc1cc(S(=O)(=O)c2ccc([N+](=O)[O-])cn2)ccc1Br → -17 | 36 | · | · | 26 | 6269 | 40
Profile of CC1CCCCN1N=Nc1nc2c([nH]1)c(=O)n(C)c(=O)n2C (configuration not stated) → -18 | · | 16 | 2 | 3.6 | 2807 | 8

Three compounds out of the list, ordered by count of non-hydrogen atoms, largest number first:
SMILES	PrP UTR inh	BJeLR lethal	Mtb hypoxia inh	Mtb hypoxia inh growth	Sa RN4220 lethal	Autofluor counter	ugtP null kill
CCC(CCC=C(C)C)C(=O)N(Cc1ccccc1)c1ccccc1 (configuration not stated)	·	·	2	0	-4.2	·	13
OC(c1ccc(Cl)cc1Cl)C(Cc1cccnc1)n1cncn1 (configuration not stated)	-19	5	13	9	7.2	3864	-6
O=c1oc2ccccc2cc1-c1ccc(O)cc1O	3	12	-4	7	5.5	2641	7

Next records
SMILES	PrP UTR inh	BJeLR lethal	Mtb hypoxia inh	Mtb hypoxia inh growth	Sa RN4220 lethal	Autofluor counter	ugtP null kill
COc1ccccc1CCNC(=O)C(=O)NCC1OCCN1S(=O)(=O)c1ccc(OC)c(OC)c1 (configuration not stated)	1	-3	-1	14	-3.7	4862	-1
O=C(C[C@H]1C[C@H](C(=O)N2CCCCC2)[C@@]2(CCc3ccccc3)c3[nH]c4ccc(Cl)cc4c3CCN2C1=O)NCCN1CCOCC1	-18	·	-3	-4	2.7	4249	-2
CCN1CCCc2cc(CN(CCN3CCOCC3)C(=S)Nc3cccc(OC)c3)ccc21	5	-1	2	4	4.6	3606	12
COc1cccc(/C=C/C(=O)N2CCN(S(=O)(=O)c3ccccc3)CC2)c1OC	-12	15	-3	2	1.3	4713	3
COc1ccc(S(=O)(=O)NCc2ccco2)c2ccccc12	7	3	2	-8	7.6	5072	8
O=C(NCc1ccco1)C(=O)NCC1OCCN1S(=O)(=O)c1ccc(Br)cc1 (configuration not stated)	-24	-5	12	4	0.6	2159	7
CCOC(=O)C1CCCN(Cc2ccc(O)c(OC)c2)C1 (configuration not stated)	-29	-1	12	11	0.7	5553	1
O=C(NCc1ccccn1)c1cccc(S(=O)(=O)Nc2ccc(F)cc2)c1	-5	·	1	-1	1.3	6457	0
Cc1cc(NC(=O)COC(=O)c2cccc(OCc3ccccc3)c2)no1	-40	3	3	5	2.8	20597*	-4
Cc1ccc(C(=O)NCCSCc2ccc(Cl)cc2Cl)cc1[N+](=O)[O-]	-27	-18	2	15	-7.8	2303	-27
O=C(Cn1cnc2c(nnn2Cc2ccc(F)cc2)c1=O)NC1CCCC1	-35	·	1	-3	0.3	22114*	5
CCOc1ccc(S(=O)(=O)Nc2ccc(C(=O)NN=C(C)c3ccc(-n4ccnc4)cc3)cc2)cc1	·	·	3	9	1.3	·	-2
NS(=O)(=O)c1ccc(CCNC(=O)CSCc2ccccc2)cc1	7	9	18	8	2.5	3242	6
Cn1c(SCC(=O)Nc2ccc3nc(SCC(=O)NC4CC4)sc3c2)nnc1-c1ccccc1	-9	-2	9	-4	-2.0	2063	1
Cc1cccc(OCC(=O)Nc2ccc3c4c(cccc24)CC3)c1C	-35	5	3	11	1.4	2498	-9
O=C(O)C1=C[C@H](c2coc3ccccc3c2=O)C[C@H](OCc2ccc(CO)cc2)O1	14	8	10	7	-13	4051	-2
Cc1cc(C)c(OCC(=O)Nc2nc3ccccc3[nH]2)c(C)c1	-35	-5	·	·	·	3271	·
Cc1ccc([N+](=O)[O-])cc1NC(=S)NC(=O)c1cccs1	8	-19	-4	8	-2.4	1931	0

Screens: PubChem, several laboratories
